BasE inh = BasE siderophore enzyme inhibitors, primary screen, biochemical, Acinetobacter baumannii ATCC 17978, fluorescence polarization; purified BasE, fluorescence polarization binding displacement; inhibition, % (concentration not given with the values); 0.1% of 84,000 active; AID 485350, 2010;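 active = both replicates above 25% with normal brightness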;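 also: 0% = negative plate control signal and 100% = positive plate control signal; stock transfer was 100 nL into about 30 µL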
KSHV LANA nucl = inhibitors of KSHV LANA-nucleosome binding, primary screen, biochemical, fluorescence polarization, FITC-LANA1-23, chicken nucleosomes; AID 720717, 2013; FITC-LANA1-23 / chicken nucleosome fluorescence polarization; hits give low values; z-score (no concentration beside the values); 0.3% of 51,000 active;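 active = both repeat wells score below -2 in polarization z-score versus plate sample wells, excluding overly bright wells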;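 also: 100 nL library stock added to about 30 µL; numbers are from one replicate; some results filed as inactive read as strong as hits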
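Material: Purified chicken nucleosomes with FITC-labelled LANA N-terminal peptide (1-23) | Reagent: 50 nM FITC-LANA1-23 probe | Medium: TEN-BT buffer, pH 7.5 | Times: 10–45 min incubation at room temperature | Detection: Fluorescence polarization | Replication: Duplicates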
Starred values were filed as active, the others as inactive; . = not tested or not shown; & = joins results of further samples.

SMILES | BasE inh | KSHV LANA nucl
CC1CN=C(N(C(=O)Nc2ccccc2)c2cccc(C(F)(F)F)c2)S1 (configuration not stated) | 1.4 | .
COCc1cc(C)nc2sc3c(c12)NCN(c1ccccc1)C3=O | -2.6 | 2.1
CCC(C)c1ccc(-n2c(=O)c3ccccc3n3c(SCC(=O)NC)nnc23)cc1 (configuration not stated) | 0.2 | .
Cc1c2c(n3c(nc4ccccc43)c1C#N)N(Cc1cccnc1)CC2 | -2.9 | 1.65
COc1ccccc1NC(=O)C(C)Nc1ccccc1SC (configuration not stated) | 1.2 | .
Cc1ccccc1Cn1nc(-c2ccc3c(c2)OCO3)ccc1=O | 0.6 | -0.331
CCOc1ccc(OCCCCN(C)C)cc1 | 0.1 | -0.7
CC(=O)Oc1ccc(OC(C)=O)c(S(=O)(=O)c2ccc(Cl)c(Cl)c2)c1 | -0.9 | .
COc1ccc2c(c1)C(=NN)c1cc(OC)ccc1-2 | 2.2 | .
COc1cc(/C=C2\N=C(SC)SC2=O)cc(OC)c1OC(C)=O | 0.9 | -1.22
NC(N)=N/N=C/c1ccco1 | -1.9 | 0.296
O=C(NC1CCCCC1O)c1ccccc1C(F)(F)F (configuration not stated) | -1.1 | .
N#Cc1ccc(CSCC(=O)NN=C2CCCC2)cc1 | 1.5 | 0.003
O=S(=O)(/C=C/c1ccccc1)NC1CCCCC1 | 0.7 | .
Cc1cc(C)cc(NC(=O)N2CCC(CN3CCCCC3)CC2)c1 | -1.9 | 0.11
COc1ccc(C(CNc2ncnc3sccc23)N2CCCC2)cc1 (configuration not stated) | -3.8 | .
Cc1cc(NC(=O)CSc2nc3ccsc3c(=O)n2CCCC(=O)NCc2ccc3c(c2)OCO3)n[nH]1 | 1.4 | 0.242
Cc1cc(C2=NNC(=Nc3ccccc3)SC2)c(C)n1Cc1ccco1 | -0.6 | .
CC(C)NC(=O)N1CC2CCCN2c2ccccc21 (configuration not stated) | -0.9 | 0.173
CC(C)C(c1nnnn1C1CCCC1)N1CCOCC1 (configuration not stated) | 0.8 | 0.359
CCN(CC)C(=O)CSc1nnc(COc2cccc(OC)c2)n1CC | 1.6 | -0.936
O=C(O)c1ccc2c(c1)-c1ccccc1C2 | 2.5 | .
CCOc1ccc(CCNC(=O)c2nnc(CS(=O)(=O)c3ccccc3)o2)cc1OCC | 0.1 | -0.384
C=CCn1c(N2CCOCC2)nc2ccccc21 | 2.1 | -1.37
CCCCCn1c(=O)[nH]c2cc(C(=O)NC3CCC(C)CC3)ccc2c1=O (configuration not stated) | 1.7 | -0.496
COc1ccc2c(c1)c(=O)oc1cc(OC(C)C)ccc12 | -1.2 | .
CCOC(=O)Cn1c(-c2ccco2)nc(-c2ccccc2)c1-c1ccccc1 | 2.5 | -0.211
CCOC(=O)c1cc2c(c(CSc3cccc(C(F)(F)F)c3)c1)OCOC2 | 1.0 | .
Cc1nc(N2CCN(C(=O)c3ccco3)CC2)[nH]c(=O)c1Cc1cccc(Cl)c1 | 0.4 | -0.505
COc1cccc(C(=O)NCc2cn3ccccc3n2)c1 | -0.6 | 1.7
Cc1nn(-c2ccccc2)nc1C(=O)NC1CCS(=O)(=O)C1 (configuration not stated) | 2.7 | .
CNC(=O)c1sc(NCc2ccco2)nc1C | 0.3 | .
CCOC(=O)C1CCN(C(=O)COc2ccc(S(=O)(=O)N3CCCCC3)cc2Cl)CC1 | 0.6 | -0.553
CCOc1ccc(N=C2NC(=O)C(CC(=O)NC(N)=O)S2)cc1 (configuration not stated) | -0.7 | 0.148
Cc1cc(C)nc(NC(=O)/C=C/c2ccccc2Cl)n1 | 4.5 | 0.031
Cc1noc(C)c1CCOC(=O)c1cc(-c2ccc(Br)cc2)nc2ccccc12 | -0.4 | .
Cc1ccc(NC(=O)C(C)OC(=O)Cc2coc3cc(C)ccc23)cc1 (configuration not stated) | 0.9 | .
COc1ccc(CNCC#N)cc1OC | -0.3 | -0.457
CCOC(=O)c1nn(-c2cc(C(=O)OC)cc(C(=O)OC)c2)cc1O | -0.7 | .
O=C(O)CCCn1cc(NC(=O)c2ccco2)cn1 | -0.9 | 0.587
C=CCN(CC=C)S(=O)(=O)c1ccc(C(=O)Nc2nc3c(s2)CC(C)CC3)cc1 (configuration not stated) | 2.9 | .
CC(=O)CC(c1ccc([N+](=O)[O-])cc1)c1c(O)c2ccccc2oc1=O (configuration not stated) | -2.1 | -0.854
O=C(c1ccco1)N1CCN(C(c2ccccc2)c2sc3ncnn3c2O)CC1 (configuration not stated) | 3.4 | -0.218
Cc1cc(C(=O)CSc2nc(N)cc(N)n2)c(C)n1C | 1.3 | .
C=CCOc1nc(F)c(Cl)c2c1Oc1cc(Br)c(Br)cc1O2 | 0.3 | .
CCC(CO)NC(=S)Nc1cc(C(F)(F)F)cc(C(F)(F)F)c1 (configuration not stated) | 0.7 | .
CC(C)N(Cc1ccccc1)C(=S)NCCN1CCOCC1 | 0.8 | .
COc1ccc(-c2nc(CSc3nc(C)c(C)n3C3CCCC3)cs2)cc1OC | -1.9 | .
Cc1csc(SCC(=O)NN2C(=O)NC3(CCCCC3)C2=O)n1 | 0.0 | .
CC1=C(C#N)C(c2cccnc2)C2=C(CC(c3ccc(Cl)cc3)CC2=O)N1 (configuration not stated) | -0.6 | -0.137

(continued)
SMILES | BasE inh | KSHV LANA nucl
CCOC(=O)N1CCN(C(=O)c2sc3nc(-c4ccc(F)cc4)cn3c2C)CC1 | -0.8 | -1.04
O=C(CCc1nc2cccnc2n1Cc1cccs1)Nc1cccc(Br)c1 | -4.5 | 0.23
COc1ccc(C(=O)ON=C2CCN(C)CC2)cc1 | -2.3 | 0.354
CCNC(=S)Nc1ccc(NC(=S)NCC)cc1 | 2.3 | -0.572
CC(C)C(=O)OCC(=O)Nc1ccc(C#N)cc1 | 0.6 | .
CC(=O)Nc1cccc(C(=O)N(C)c2ccccc2)c1 | 1.1 | -0.414
CN(C)c1cccc(C(=O)OCC(=O)c2cc3ccccc3o2)c1 | -3.9 | .
CC1CC(C)(C)CC2(C1)NC(=O)N(Cc1cccc(S(=O)(=O)N(C)C)c1)C2=O (configuration not stated) | 0.5 | .
Cc1cc(=O)n(CCO)c(=O)[nH]1 | 3.4 | .
O=C(Nc1ccc(I)cc1C(=O)NCCN1CCOCC1)c1ccco1 | -0.9 | -0.518
O=C(O)C1(c2ccccc2)CC1 | 3.3 | .
O=C(Cn1nnc2ccccc21)Nc1cc(C(F)(F)F)ccc1Cl | 3.5 | 0.178
Nc1ccccc1Sc1c(Cl)cncc1Cl | -0.3 | -0.819
NC(=O)c1cc(C(=O)Cc2ccccc2)c[nH]1 | . | -1.07
C=CCSc1nc(Nc2ccc(Cl)cc2)c2cnc(N3CCOCC3)nc2n1 | -1.5 | -0.304
COc1ccc(NC2=Nc3ccccc3CC2)cc1 | 0.5 | .
Clc1ccccc1CNC12CN3CN(CN(C3)C1)C2 | 2.1 | -0.07
O=C(C1CCCO1)N1CCNCC1 (configuration not stated) | 5.6 | .
COc1ccc(/C=N/c2n[nH]c(N)n2)cc1 | -1.7 | 1.16
S=C1NCN(CCc2ccccn2)CN1 | 1.8 | -0.362
Cc1cccc(-c2cc(C(=O)N3CCN(C(=O)c4ccco4)CC3)c3ccc(Cl)c(C)c3n2)c1 | -1.0 | 0.0795
Cc1ccc(Nc2cc(C)nn2-c2ccccc2)cc1 | 0.4 | .
Cc1ccc(C)n1-c1ccc(C(=O)N2CCC(=O)CC2)cc1 | 0.5 | .
C=CCN1C(=O)c2[nH]nc(-c3ccccc3O)c2C1c1ccc(O)cc1 (configuration not stated) | -2.3 | -0.585
CC/C(=N\N=c1/sc2ccccc2n1C)c1ccc(OC)c(OC)c1 | 2.0 | .
N#CCCn1cc(C=C(C#N)C#N)c(-c2ccccc2)n1 | 1.8 | .
CC1CN(CC(=O)Nc2c(Cl)cccc2Cl)CC(C)O1 (configuration not stated) | 2.2 | .
COc1ccc(C(=O)n2ccc(-c3cccs3)n2)cc1OC | 2.3 | 0.155
CCCn1c(SCc2c(C(=O)OCC)oc3ccccc23)nnc1-c1ccncc1 | 0.3 | .
C=CCSc1nnc(-c2cccnc2)n1Cc1ccccc1 | -3.4 | -0.08

Exported field by field: entries from further up.
Cc1cc(NC(=O)CSc2nc3ccsc3c(=O)n2CCCC(=O)NCc2ccc3c(c2)OCO3)n[nH]1
  BasE inh: 1.4; KSHV LANA nucl: 0.242

Cc1cc(C2=NNC(=Nc3ccccc3)SC2)c(C)n1Cc1ccco1
  BasE inh: -0.6; KSHV LANA nucl: .

New compounds follow:
SMILES | BasE inh | KSHV LANA nucl
COc1cc(CSc2nnnn2-c2ccc(C)cc2C)cc(OC)c1OC | 3.1 | .
O=C(COC(=O)c1ccc(S(=O)(=O)C(F)F)cc1)c1ccc2c(c1)OCCO2 | 0.3 | .
CCOC(=O)c1cccc(NC(=O)c2ccc3c(c2)C(=O)N(Cc2ccco2)C3=O)c1 | -0.3 | 0.132
CN(C)CCCNc1nn2c(=O)c3ccccc3nc2c2ccccc12 | 2.6 | .
O=C(Nc1ccccc1N1CCOCC1)c1cccc(N2C(=O)c3ccccc3C2=O)c1 | -0.2 | .
O=C(O)CSCCc1ccccn1 | -1.5 | 0.575
NC(=O)c1cc[n+](CC(=O)N2CCCCCC2)cc1 | -1.4 | 0.087
C[n+]1cc(-c2ccc3ccccc3n2)cc2ccccc21 | 2.6 | .
O=C(O)CN(CCN(CC(=O)O)CC(=O)O)CCN(CC(=O)O)CC(=O)O | -0.4 | -0.273&0.435
Cc1ccc(Nc2nc(Cl)nc(N(C)C#N)n2)cc1 | 0.3 | 0.456

Reprinted from the results shown for reference:
SMILES | BasE inh | KSHV LANA nucl
O=C(O)CSCCc1ccccn1 | -1.5 | 0.575
NC(=O)c1cc[n+](CC(=O)N2CCCCCC2)cc1 | -1.4 | 0.087
C[n+]1cc(-c2ccc3ccccc3n2)cc2ccccc21 | 2.6 | .

The results go on.
SMILES | BasE inh | KSHV LANA nucl
CC(C)OC(=O)c1ccc(COC(=O)CCc2nc3ccccc3[nH]c2=O)cc1 | 4.2 | -0.69
COc1c(Cl)ccc(Cl)c1C(=O)NC(=S)N1CCOCC1 | 2.1 | 0.244
CCN(CC)c1nc(Nc2ccc(Cl)cc2)nc(OCC#N)n1 | -3.2 | 1.94
CC(=NCCN1CCNCC1)C1=C(O)CC(C)(C)CC1=O | 2.1 | -0.0725
CC1CCc2sc(C(=O)NN)cc2C1 (configuration not stated) | 0.0 | .
CC(=O)Nc1ccc(N=Nc2ccc(O)cc2)cc1 | 2.7 | .
CCn1cc(NC(=O)NC2CCc3ccccc32)c(=O)c2ccc(C)nc21 (configuration not stated) | 2.8 | -1.17
CC(C)N(C(=O)c1cnc2n(c1=O)CCS2)C(C)C | 2.5 | -0.912
Cc1nc2ccccn2c1C(=O)OCC#N | -1.4 | -0.835
O=C(c1ccc(C(F)(F)F)cc1)n1ccc(-c2cccs2)n1 | 2.5 | .
O=C(CN(C(=O)c1ccc(Cl)nc1)c1ccccc1)NCC1CCCO1 (configuration not stated) | -2.7 | 0.242
COc1ccc2c(c1)CCc1c(C(=O)Nc3cnn(Cc4ccc(F)cc4)c3)noc1-2 | 1.0 | -1.17
Cc1cccc(C)c1N1C(=O)CSC1=O | . | -1.82
Cc1nn(-c2ccccc2)c(Cl)c1C(=O)OCC(N)=O | 1.1 | .
CN(c1ccccc1)S(=O)(=O)c1cc(C(=O)NCCCN2CCOCC2)ccc1Cl | 2.0 | .
Cc1cc(C(=O)COc2cccc3c2OC(C)(C)C3)c(C)n1C1CC1 | 0.8 | .
COc1ccc(-c2noc(-c3ccccc3)n2)cc1 | -0.6 | 0.89
O=C(C1CC1)N1c2ccccc2Sc2ccccc21 | -0.1 | 0.039
COC(=O)c1cc(Cl)c(NC(=O)C(C)C)cc1OC | -0.6 | -0.159
O=C(OCc1nc2ccccc2s1)c1ccc(S(=O)(=O)N2CCCC2)cc1 | 0.8 | .
Cn1c(=O)c2c(nc(NCC3CCCO3)n2Cc2cccc3ccccc23)n(C)c1=O (configuration not stated) | -0.9 | -0.055
Cc1cccc2cc(/C=C3\NC(=S)NC3=O)c(N3CCOCC3)nc12 | -5.3 | -0.299
O=C(CSc1nc2ccccc2o1)N1CCN(S(=O)(=O)c2ccccc2)CC1 | -0.2 | .
CC(Oc1ccccc1)C(=O)Nc1ccccc1 (configuration not stated) | 3.1 | 0.331
CCO/C(C)=N\Oc1nc2nonc2nc1O/N=C(/C)OCC | -4.9 | 2.09
Cc1nnc(N(C)C(=O)Cc2ccc3c(c2)OCO3)s1 | -0.3 | -1.34
c1ccc2nc(-c3nc4ccccc4o3)ccc2c1 | -0.7 | -0.395
CC12CCC(CC1=NNC(=O)Nc1ccccc1)C2(C)C (configuration not stated) | 2.2 | .
COc1ccc(C(=O)OCc2c(C)noc2C)cc1S(=O)(=O)N1CCCc2ccccc21 | 3.2 | .

Profiles from above. Order of screens: BasE inh, KSHV LANA nucl
`COc1ccc(CNCC#N)cc1OC` is entered as -0.3, -0.457
`O=C(O)CSCCc1ccccn1` is entered as -1.5, 0.575
`CC1=C(C#N)C(c2cccnc2)C2=C(CC(c3ccc(Cl)cc3)CC2=O)N1` (configuration not stated) is entered as -0.6, -0.137
`O=C(O)C1(c2ccccc2)CC1` is entered as 3.3, .
`N#CCCn1cc(C=C(C#N)C#N)c(-c2ccccc2)n1` is entered as 1.8, .

High-throughput results as filed in PubChem BioAssay.

A portion of the library; count on the stated rates, not on these rows.
